# Screens: PubChem, several laboratories
# YopH PTP inh – YopH tyrosine phosphatase inhibitors, primary screen, biochemical, fluorescence Ex485/Em525; YopH tyrosine phosphatase [Yersinia enterocolitica]; AID 898, 2007; inhibition, %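 (about 10 µM by stock and volumes)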; 140,000 compounds, 0.16% hits;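 active = inhibition of 50% or more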;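 also: controls were vehicle for no effect and minimum signal wells for full effect; inactives centre near -20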
# Mtb H37Rv – M. tuberculosis H37Rv growth inhibitors, H37Rv strain (AID 1626) | 220,000 compounds, 0.95% hits | one-dose inhibition, % at 10 µM; IC50 in µM for titrated hits | M. tuberculosis H37Rv growth inhibition; higher % means a stronger effect;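 active = confirmed in a dose series; inconclusive = inhibition above 80% but not taken into the dose series; inactive = below 80% or under 30% at every dose of the series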;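 also: bacteria incubated seven days before Alamar blue readout; 0% = bacteria only wells and 100% = bacteria with antibiotic wells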
# Arbovirus anti – antivirals against arbovirus infection, primary screen, cell-based, full library, 10K replicate subset; inhibition, % at 10 µM; 200,000 compounds, 0.37% hits; AID 1251, 2008; arbovirus infection cell-based antiviral screen;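 active = inhibition from about 30%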;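 also: bluetongue infection of BSR cells; cell survival read as ATP light after 72 h; 0% = infected wells without compound and 100% = uninfected wells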
# RecA splice inh – Mtb RecA intein splicing inhibitors, primary screen, biochemical, fluorescence, HTS; Protein RecA (Mycobacterium tuberculosis (strain ATCC 25618 / H37Rv)), P9WHJ3; cell-free RecA intein splicing; inhibition, %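 (about 9 µM by stock and volumes)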; 290,000 compounds, 0.75% hits; AID 2221, 2009; in the data active = inhibition above about 30%; inconclusive = no clear call, values can overlap the other calls;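 also: 0% = vehicle wells and 100% = reference inhibitor control wells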
# Target sequence (P9WHJ3 whole entry, looked up, canonical isoform): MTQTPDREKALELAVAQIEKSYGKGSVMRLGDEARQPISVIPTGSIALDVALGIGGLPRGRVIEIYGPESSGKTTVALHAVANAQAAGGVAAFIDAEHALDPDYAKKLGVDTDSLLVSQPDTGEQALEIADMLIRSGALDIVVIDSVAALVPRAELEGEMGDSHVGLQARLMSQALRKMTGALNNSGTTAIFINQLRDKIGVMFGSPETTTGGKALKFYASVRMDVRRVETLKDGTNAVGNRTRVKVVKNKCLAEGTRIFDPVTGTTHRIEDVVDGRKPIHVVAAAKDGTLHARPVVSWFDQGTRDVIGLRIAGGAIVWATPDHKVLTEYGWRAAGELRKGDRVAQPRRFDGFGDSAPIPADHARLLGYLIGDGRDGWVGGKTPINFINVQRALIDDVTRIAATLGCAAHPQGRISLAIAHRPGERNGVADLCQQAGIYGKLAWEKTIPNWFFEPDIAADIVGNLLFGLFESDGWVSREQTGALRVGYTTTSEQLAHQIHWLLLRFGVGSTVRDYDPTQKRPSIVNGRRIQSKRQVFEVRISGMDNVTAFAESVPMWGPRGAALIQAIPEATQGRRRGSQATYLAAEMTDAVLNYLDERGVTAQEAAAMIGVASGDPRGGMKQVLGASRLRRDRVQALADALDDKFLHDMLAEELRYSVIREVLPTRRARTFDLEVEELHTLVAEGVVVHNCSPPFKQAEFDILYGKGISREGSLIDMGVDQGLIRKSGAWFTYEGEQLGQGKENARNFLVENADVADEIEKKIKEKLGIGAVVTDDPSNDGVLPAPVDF
# Mtb betalactam – beta-lactam sensitization of Mtb H37Rv, H37Rv; M. tuberculosis H37Rv growth with meropenem, percent inhibition; hits of this screen are not shown here; inhibition, % at 25 µM; 330,000 compounds, 0.27% hits; AID 434955, 2010;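 active = about 74% or more and at least 40 points above the plate without the antibiotic, then above 30% in a dose series; inconclusive = first-round hits that could not be retested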;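 also: growth measured after seven days incubation then overnight dye step; 0% = bacteria only wells and 100% = bacteria with antibiotic; twin plates without the antibiotic show which effects depend on it; some results filed as inactive read as strong as hits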
# Arbovirus anti repeat – further read-out of Arbovirus anti, marked with its call; inhibition, %; measured here: 10K subset replicate screen; many hits read low in the repeat;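 first of two repeat runs on a subset; 0% = infected and 100% = uninfected wells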
# Active calls of the source: *; ? = inconclusive; · = not tested or not shown. Not all compounds are listed, so the mix of outcomes need not match the whole.
SMILES,YopH PTP inh,Mtb H37Rv,Arbovirus anti,RecA splice inh,Mtb betalactam,others
COC(=O)C1(O)CC(CC(C)C)=NN1C(=O)c1ccccc1 (centres undefined),-8,0%,-1,0.2,-13,
O=C(NCC1CCCO1)NC1(C(F)(F)F)Oc2ccccc2O1 (centres undefined),-43,-3%,-8,·,-12,Arbovirus anti repeat=-5
O=S(=O)(c1ccc(Br)cc1)c1nc(-c2ccccc2)oc1NCc1cccnc1,-5,-5%,-2,0.0,-1,
COC(=O)c1csc2c(C(F)(F)F)cc(N3CCN(C(=O)Nc4ccccc4)CC3)nc12,·,-3%,·,-4.1,-3,
O=C(Nc1ccc(Br)cc1)c1cnccn1,-31,-16%,1,-2.4,1,Arbovirus anti repeat=3
Cc1cc(Br)ccc1OCCOCCN1CCCC1,·,·,·,-2.8,-3,
CC(C)c1ccc(OCC(=O)NC2=NCCS2)cc1,·,4%,7,21,5,
COc1ccc(CNC(=O)Nc2cc(C)cc(C)c2)cc1,·,-7%,·,-3.2,-14,
CCCN(CCC)CCCNC(=O)CCNS(=O)(=O)c1ccc(Br)cc1,-27,-5%,-8,-0.3,-6,
Cc1cc(O)c(C(C[N+](=O)[O-])c2ccc(Cl)cc2)c(=O)o1 (centres undefined),-19,6%,-5,1.7,-1,
CCOc1ccc(S(=O)(=O)N2CCCCC2)cc1NC(=O)C1CCC1,·,·,·,-0.9,-2,
CCOC(=O)C1=C(COC(=O)c2ccccc2[N+](=O)[O-])NC(=O)NC1C (centres undefined),·,·,·,-5.4,-6,
CC(C)Oc1ccc(S(=O)(=O)N2CCOCC2)cc1NC(=O)C1=COCCO1,·,·,·,0.0,1,
O=C(COC(=O)Cc1ccsc1)NC(c1ccccc1)c1ccccc1,-33,7%,-2,3.4,3,
Cc1ccc[n+](C(C)C(=O)Nc2ccc([N+](=O)[O-])cc2C)c1 (centres undefined),·,-2%,6,-0.7,-4,
C=CCN(c1ccccc1Cl)S(=O)(=O)c1cccc(C(=O)OCC(=O)N(C)C2CCS(=O)(=O)C2)c1 (centres undefined),·,-6%,-2,·,-1,
Nc1nc2ccccc2cc1-c1cccs1,·,·,·,-3.0,8,
COc1ccc(-c2n[nH]c(=S)o2)c(OC)c1,-9,-5%,8,-0.2,-10,
Cc1ccc(C)n1Cc1ccc(C(=O)O)cc1,-14,-19%,16,·,-4,
Cc1ccn2c(=O)nc(SCC(=O)NCc3ccc(F)cc3)nc2c1,·,·,·,0.4,-9,

# A draw from above in order of length of the SMILES, lowest first.
SMILES,YopH PTP inh,Mtb H37Rv,Arbovirus anti,RecA splice inh,Mtb betalactam,others
COc1ccc(CNC(=O)Nc2cc(C)cc(C)c2)cc1,·,-7%,·,-3.2,-14,
O=C(NCC1CCCO1)NC1(C(F)(F)F)Oc2ccccc2O1 (centres undefined),-43,-3%,-8,·,-12,Arbovirus anti repeat=-5
O=S(=O)(c1ccc(Br)cc1)c1nc(-c2ccccc2)oc1NCc1cccnc1,-5,-5%,-2,0.0,-1,
C=CCN(c1ccccc1Cl)S(=O)(=O)c1cccc(C(=O)OCC(=O)N(C)C2CCS(=O)(=O)C2)c1 (centres undefined),·,-6%,-2,·,-1,

# The listing continues.
SMILES,YopH PTP inh,Mtb H37Rv,Arbovirus anti,RecA splice inh,Mtb betalactam,others
CC(=O)O[C@H]1C(=O)[C@@]2(C)C([C@H](OC(=O)c3ccccc3)[C@]3(O)C[C@H](OC(=O)[C@H](O)[C@@H](NC(=O)c4ccccc4)c4ccccc4)C(C)=C1C3(C)C)[C@]1(OC(C)=O)CO[C@@H]1C[C@H]2O (some centres undefined),·,·,·,8.0,12,
CC1CCC/C(=N\NS(=O)(=O)c2ccccc2)C1 (centres undefined),·,-3%,·,-1.0,0,
C/C(=N\Nc1ccc(C(F)(F)F)cc1[N+](=O)[O-])C1CC1,-39,5%,-7,4.2,-6,
Cc1ccc(NC(=O)c2cncc(Br)c2)cc1S(=O)(=O)N(C)C,-30,0%,6,0.5,-5,
COc1ccc(N(CC(=O)N2CCN(Cc3ccccc3)CC2)S(C)(=O)=O)cc1Cl,·,·,·,-0.4,3,
CN(Cc1ccccc1)C(=S)NC(=O)c1ccccc1,·,?,2,13,56,
COc1ccc(Cl)cc1/C=C1/C(=O)ON=C1C,·,·,·,-0.5,5,
COc1cc([N+](=O)[O-])ccc1NC(=O)Cc1ccc(C)cc1,·,1%,0,-0.8,3,
CCC1=NN(C(=O)COc2ccccc2)C(O)(c2ccc(Br)cc2)C1 (centres undefined),·,4%,-9,3.6,-10,
Cn1c(=NC(=O)c2ccco2)sc2cccc(F)c21,-26,6%,3,1.6,1,Arbovirus anti repeat=-2
Cc1c(C#N)c2ccccc2n1CC(=O)N1CCCc2ccccc21,-23,-1%,3,1.7,-10,
COc1ccc(/C=N/NC(=O)c2cccc([N+](=O)[O-])c2)cc1OS(=O)(=O)c1ccccc1,11,1%,-12,7.2,9,
O=C1c2ccccc2C(=O)N1CC1c2ccccc2CCN1C(=O)C1CCCCC1 (centres undefined),-11,1%,2,5.2,-2,
N#Cc1c(NC(=O)CSc2ncnc3c2cnn3-c2ccccc2Cl)sc2c1CCCC2,-33,4%,3,·,9,
CCCCN(C(=N)N1CCCCC1)c1nc(C)c([N+](=O)[O-])c(=O)[nH]1,-23,-12%,0,0.7,-3,
O=C(Nc1nc2ccc(Cl)cc2s1)C1CCCO1 (centres undefined),13,1%,-1,-1.9,32,
Cc1cc(OC(=O)c2ccc(S(=O)(=O)N(C)C)cc2)cc(=O)o1,-46,3%,3,-4.6,-9,
Cn1nnnc1SCC(=O)Nc1cc(C(C)(C)C)nn1-c1ccccc1,-40,-5%,2,-0.7,-10,
Cc1ccccc1CN(C)C(C)C(=O)NCc1ccccc1 (centres undefined),·,·,·,0.5,-7,
CCOC(=O)N1CCN(C(=O)C2CCN(Cc3ccc(O)c(OCC)c3)CC2)CC1,·,4%,-2,8.8,-2,

# Fetched by structure from the entries so far:
SMILES,YopH PTP inh,Mtb H37Rv,Arbovirus anti,RecA splice inh,Mtb betalactam,others
O=S(=O)(c1ccc(Br)cc1)c1nc(-c2ccccc2)oc1NCc1cccnc1,-5,-5%,-2,0.0,-1,
CC(C)c1ccc(OCC(=O)NC2=NCCS2)cc1,·,4%,7,21,5,
CC1CCC/C(=N\NS(=O)(=O)c2ccccc2)C1 (centres undefined),·,-3%,·,-1.0,0,
Nc1nc2ccccc2cc1-c1cccs1,·,·,·,-3.0,8,
O=C1c2ccccc2C(=O)N1CC1c2ccccc2CCN1C(=O)C1CCCCC1 (centres undefined),-11,1%,2,5.2,-2,
C=CCN(c1ccccc1Cl)S(=O)(=O)c1cccc(C(=O)OCC(=O)N(C)C2CCS(=O)(=O)C2)c1 (centres undefined),·,-6%,-2,·,-1,
O=C(COC(=O)Cc1ccsc1)NC(c1ccccc1)c1ccccc1,-33,7%,-2,3.4,3,

# More structures
SMILES,YopH PTP inh,Mtb H37Rv,Arbovirus anti,RecA splice inh,Mtb betalactam,others
COc1ccc2c(=O)cc(-c3ccccc3)n(C)c2c1,-2,1%,5,·,-9,
O=C(O)C1=C[C@H](c2ccc(F)cc2)C[C@H](OCc2ccc(CO)cc2)O1,·,-9%,·,-2.0,-5,
Cc1c(C(C)C)c(=O)n(-c2ccc(S(=O)(=O)NC(C)C)cc2)n1C,·,10%,9,1.9,-4,
O=c1cnn(Cc2ccc(F)cc2)c2ccccc12,·,·,·,-2.3,-1,
COc1ccc(S(=O)(=O)Nc2ccc(NC(C)=O)cc2)cc1Cl,·,-6%,2,0.2,0,
CCOc1ccc(CCNC(=O)COC(=O)c2nn(C)c(=O)c3ccccc23)cc1OCC,·,·,·,0.5,-3,
CCCCn1c(SCC(=O)Nc2nnc(C(C)C)s2)nc2c1c(=O)n(C)c(=O)n2C,0,-8%,5,-0.3,-9,
Cn1c(=O)[nH]c(=O)c2c1nc(CN1CCN(c3ccc(F)cc3)CC1)n2CCN1CCOCC1,·,-3%,·,-0.5,-1,
COc1ccc(-c2noc(C(=O)NCc3ccc(F)cc3)n2)cc1OC,·,1%,-25,0.9,3,
Cc1cc(NS(=O)(=O)c2ccc(NC(=S)NC(=O)c3cccc(S(=O)(=O)N(C)C)c3)cc2)no1,·,-7%,5,0.2,-5,

# In the list so far, 3 contain an NH in an aromatic ring:
SMILES,YopH PTP inh,Mtb H37Rv,Arbovirus anti,RecA splice inh,Mtb betalactam,others
COc1ccc(-c2n[nH]c(=S)o2)c(OC)c1,-9,-5%,8,-0.2,-10,
CCCCN(C(=N)N1CCCCC1)c1nc(C)c([N+](=O)[O-])c(=O)[nH]1,-23,-12%,0,0.7,-3,
Cn1c(=O)[nH]c(=O)c2c1nc(CN1CCN(c3ccc(F)cc3)CC1)n2CCN1CCOCC1,·,-3%,·,-0.5,-1,

# Other records follow.
SMILES,YopH PTP inh,Mtb H37Rv,Arbovirus anti,RecA splice inh,Mtb betalactam,others
COc1ccc(C(=O)NCC(=O)OCC(=O)N2CCCc3ccccc32)cc1,-35,-25%,4,-0.7,-6,
CN1CCN(c2nc(-c3ccc(C(C)(C)C)cc3)nc3ccccc23)CC1,·,·,·,2.3,61,
O=C(NC1CCCC1)c1ncn[nH]1,-36,4%,1,-0.2,-3,
CCOC(=O)c1cccc(NC(=O)COc2ccc([N+](=O)[O-])cc2)c1,-33,56%,3,1.0,81,
O=c1c2ccccc2nnn1COc1ccc(F)cc1Cl,·,3%,-11,-0.1,-1,
O=C(NCCNc1ccc([N+](=O)[O-])cc1)c1cccs1,·,·,·,-3.2,3,
c1ccc(-c2nn3c(Cn4nnc5ccccc54)nnc3s2)cc1,9,-2%,3,1.9,3,
Cc1ccccc1/C=C\c1nc(O)c([N+](=O)[O-])c(=O)[nH]1,·,·,·,-1.4,2,
CC(=O)Nc1ccccc1-c1ccc(C)o1,2,-8%,1,-1.0,-7,
OC(CNCc1ccc(F)cc1)(c1ccccc1)c1ccc(F)cc1 (centres undefined),-31,-5%,5,-4.0,-21,
Cc1c(C(=O)N(C)C)sc(NC(=O)c2cc([N+](=O)[O-])cc([N+](=O)[O-])c2)c1C#N,-16,-3%,-1,2.7,-3,
CCOc1ccc(S(=O)(=O)NC(C)C(=O)NCc2ccncc2)cc1 (centres undefined),·,·,·,1.1,-10,
COC(=O)CCCNC(=O)CCc1nnc(-c2ccc(-c3ccccc3)cc2)o1,·,·,·,2.1,-4,
Cc1cccc(N/C=C/C(=O)c2ccc(Cl)cc2)c1,·,·,·,-1.9,0,
COc1ccc(-c2nnc(SCC(=O)c3ccc4c(c3)OCCO4)o2)cc1,-10,-4%,·,0.1,4,
Cc1ccccc1-n1c(SCC(=O)NCc2cccs2)nnc1-c1ccncc1,-27,·,0,-0.9,0,
CCOC(=O)NC(=S)Nc1cccc(NC(=S)NC(=O)OCC)c1,·,-9%,1,-1.0,-5,
COc1ccc(Nc2cc(C)c3c(O)cccc3n2)cc1,·,18%,·,4.1,-5,
N#CCC(=N)N1CCN(c2ccc(F)cc2)CC1,·,5%,10,0.2,-5,
CN(C(=O)COC(=O)c1ccc(F)c(S(=O)(=O)N2CCOCC2)c1)C1CCS(=O)(=O)C1 (centres undefined),·,·,·,-3.4,-14,

# Grouped by structure: the compounds so far with a furan ring, fused or not (2)
SMILES,YopH PTP inh,Mtb H37Rv,Arbovirus anti,RecA splice inh,Mtb betalactam,others
Cn1c(=NC(=O)c2ccco2)sc2cccc(F)c21,-26,6%,3,1.6,1,Arbovirus anti repeat=-2
CC(=O)Nc1ccccc1-c1ccc(C)o1,2,-8%,1,-1.0,-7,

# New compounds follow
SMILES,YopH PTP inh,Mtb H37Rv,Arbovirus anti,RecA splice inh,Mtb betalactam,others
Cc1ccc(/C=N/n2c(C)nc3ccccc3c2=O)o1,·,2%,1,-2.2,5,
CCOc1ccccc1NC(=O)C(=O)/C=C(\O)c1cc(OC)ccc1OC,-18,-2%,-6,11,-4,
O=C(NCC1CCCO1)c1ccc(-c2ccccc2Cl)o1 (centres undefined),·,·,·,1.4,-1,
Cc1nc(N2CCCCC2)sc1C(=O)c1cccc([N+](=O)[O-])c1,·,10%,2,6.3,-3,
